Assay outcomes: PubChem BioAssay, National Center for Advancing Translational Sciences (NCATS)
CtBP-E1A inh – blocks the CtBP interaction with E1A | AlphaScreen GST-E1A/His-CtBP binding, 1536-well; hits give low values; control for the full effect not named in the record | activity change, % (concentration not given with the values) | 0.49% of 340,000 active; in the data active means activity change below about -65%; inconclusive means about -30% to -65%; inactive means above about -30%; further: on the % scale 0 is the no-effect control and ±100 the full control effect
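In 5 uL wells, 23 nL compound meets equimolar GST-E1A and His-CtBP (5X stock 125 nM each) for 2 h, 37 °C. Beads (5X, 50 ug/mL) then 1 h, 37 °C, dark.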
PINK1 modulator – modulators of PINK1 expression | PINK1 immunofluorescence, high-content cytometry, 24 h | Potency, µM (highest dose often 76.6 µM), without a hit: at the top dose activation (PINK1 increase), usual class: activators | 0.2% of 410,000 active; active = well fitted activation curve with a large enough effect; inconclusive = small, poorly fitted or top-dose-only effect; inactive = flat fitted curve, though single readings scatter; cell line not stated here;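 further: potency means the concentration at half of the fitted maximal effect; % of control where 0% means no effect; nearly all actives have a fitted effect of over 65% in size; a mitochondrial uncoupler was the plate control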
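Stable cell line treated 24 h with compounds at 5 concentrations (CCCP controls), then fixed and immunostained for PINK1 plus nuclear and cell stains; PINK1 immunofluorescence quantified by laser-scanning microplate cytometry.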
D2 agonist – activates the human D2 dopamine receptor. AID 624465. P14416. 0.084% of 360,000 active. activation, % (no concentration beside the values). DiscoveRx PathHunter D2 beta-arrestin, luminescence, 90 min; 100% = 57 uM dopamine signal; in the data active = activation above about 40%; inconclusive = about 15% to 40%; inactive = below about 15%; further: compound concentration not given in the record; the text of the record calls up to 30% inactive
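DiscoveRx PathHunter D2 beta-arrestin cells (2,100/well) attached overnight, then compound-stimulated 90 min at 37 C in HBSS/10 mM HEPES/0.1% Tween-20 buffer; beta-galactosidase complementation read by luminescence after 1 h at ambient temperature. Dopamine 57 uM final (EC100) as control.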
TRPML1 ag – agonists of human TRPML1 channel; TRPML1-expressing cells, Ca2+ dye fluorescence, FDSS; host cell line not named in the record; reference of the full effect not given here; activation, % (no concentration beside the values); 0.12% of 410,000 active; AID 624414; in the data active = activation above about 50%; inconclusive = about 30% to 50%; inactive = below about 30%; further: 0% is about no effect; the text of the record puts the active cut at 80%
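In this qHTS format, compounds were pin-transferred onto Ca8-dye-loaded TRPML1-DL cells induced with Tet overnight, and intracellular Ca2+ fluorescence was recorded kinetically for 110 s after a 10 s baseline. A subsequent 4uM final 54-4 (EC80) addition followed by a second 110 s read served as the antagonist phase.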
TRPML1 inh – inhibitors of human TRPML1 channel | Q9GZU1 | TRPML1-inducible cells, Ca2+ dye fluorescence, FDSS; hits give low values; inhibition of EC80 agonist-evoked calcium signal | activity change, negative = inhibition, % (test concentration not listed) | 0.02% of 390,000 active | AID 624415; in the data active means activity change below about -50%; inconclusive means about -30% to -50%; inactive means above about -30%;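 further: stimulus is agonist 54-4 at its EC80 concentration; on the % scale 0 is the no-effect control and ±100 the full control effect; compound concentration not given in the record; the text of the record puts the active cut at -80%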
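Calcium fluorescence in TRPML1-DL cells induced overnight with Tet: a 110 s read after compound pin addition, then a 110 s antagonist read after challenge with 54-4 at 4 uM final (EC80).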
Six1-Eya2 blk – Six1/Eya2 interaction inhibition; AlphaScreen GST-Six1/His-Eya2 binding, biochemical; hits give low values; control for the full effect not named in the record; activity change, % (concentration not given with the values); 0.56% of 360,000 active; AID 651725; in the data active = activity change below about -65%; inconclusive = about -30% to -65%; inactive = above about -30%; further: on the % scale 0 is the no-effect control and ±100 the full control effect
Target sequence (O00167 whole entry, looked up): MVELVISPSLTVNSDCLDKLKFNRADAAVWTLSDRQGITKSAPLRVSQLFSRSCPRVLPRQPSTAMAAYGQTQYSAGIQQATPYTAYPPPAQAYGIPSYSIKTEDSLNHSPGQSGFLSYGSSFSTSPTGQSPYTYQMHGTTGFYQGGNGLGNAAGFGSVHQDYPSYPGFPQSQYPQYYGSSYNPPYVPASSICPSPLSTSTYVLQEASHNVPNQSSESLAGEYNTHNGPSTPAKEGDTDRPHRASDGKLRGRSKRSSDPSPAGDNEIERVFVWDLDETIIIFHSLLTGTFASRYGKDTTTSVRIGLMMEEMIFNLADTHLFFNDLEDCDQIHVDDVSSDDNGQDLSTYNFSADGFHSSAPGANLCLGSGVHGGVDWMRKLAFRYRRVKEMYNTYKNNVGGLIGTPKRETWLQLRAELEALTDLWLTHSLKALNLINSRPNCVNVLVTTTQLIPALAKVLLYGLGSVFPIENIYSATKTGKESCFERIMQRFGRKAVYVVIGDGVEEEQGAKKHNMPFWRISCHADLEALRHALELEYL
Target sequence (Q15475 whole entry, looked up): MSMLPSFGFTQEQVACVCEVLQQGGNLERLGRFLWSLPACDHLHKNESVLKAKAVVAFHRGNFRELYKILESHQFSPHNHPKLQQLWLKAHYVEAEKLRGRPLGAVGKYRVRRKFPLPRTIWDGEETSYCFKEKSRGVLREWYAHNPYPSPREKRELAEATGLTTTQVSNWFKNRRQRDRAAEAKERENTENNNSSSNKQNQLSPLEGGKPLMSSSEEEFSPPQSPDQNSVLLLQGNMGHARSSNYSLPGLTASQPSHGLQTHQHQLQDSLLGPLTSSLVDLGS
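AlphaScreen luminescence read after one hour at 37 °C in darkness. Pin-transferred compounds met GST-Six1 and His-Eya2 protein (5X stock 250 nM/500 nM) plus glutathione donor and Ni-chelate acceptor beads (5X, 50 ug/mL).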
Starred values were filed as active, the others as inactive; ? = inconclusive; nt = no result given; & = joins results of further samples; [ ] = dose if it differs, or a comment.

SMILES	CtBP-E1A inh	PINK1 modulator	D2 agonist	TRPML1 ag	TRPML1 inh	Six1-Eya2 blk
O=C(CCCN1C(=O)c2ccccc2C1=O)Nc1ccccc1	-13	1.6%	-2.3	-0.1	-1	-6
Cc1ccc(C(=O)CSC2=NC(N)=C(C#N)C3(CCCCC3)C2C(N)=O)cc1 (stereo not given)	-3	nt	-0.1	-0.4	-12	0
O=C(CCSc1ccc(F)cc1)Nc1ccc(-n2cnnn2)cc1	-1	-1.2%	1.1	-0.2	5	5
Cc1cc(NC(=O)CSc2nnc3ccccn23)no1	4	1.0%	-0.8	-1.0	-4	6
CCOCCCNC(=O)c1ccc2c(c1)NC(=O)C(CS(=O)(=O)Cc1ccc(F)cc1Cl)N2 (stereo not given)	nt	-0.5%	nt	2.2	-11	nt
COc1ccc(C2NC(=O)NC3=C2CCc2ccccc23)cc1 (stereo not given)	-4	8.8%	4.9	0.8	12	-10
N#CCCN(C(=O)COC(=O)C12CC3CC(CC(O)(C3)C1)C2)c1ccc(F)cc1	0	1.1%	-3.2	0.7	17	-1
CC1CN(CCC(=O)Nc2ccccc2F)CC(C)O1 (stereo not given)	nt	1.8%	1.5	-0.6	-16	-2
CCc1ccc(-c2cc(C)no2)cc1S(=O)(=O)N1CCN(c2cc(C)ccc2C)CC1	-8	0.6%	-2.3	0.8	48	-6
Brc1ccc(-n2nc(-c3ccccc3)c3cnc4cc5c(cc4c32)OCO5)cc1	nt	-0.3%	nt	-0.5	-11	nt
Cc1ccccc1N1CCN(C2CCCN(C(=O)CN3CCCC3=O)C2)CC1 (stereo not given)	-5	-1.2%	-3.0	0.3	-10	9
CCCN(CCC)C(=O)CC(c1ccccc1)c1ccco1 (stereo not given)	0	2.3%	-2.4	0.7	12	-17
COc1ccccc1C(=O)Nc1ccccc1OCc1cc(=O)n2cc(C)sc2n1	nt	2.0%	nt	-0.2	10	nt
Cc1ccccc1NC(=O)c1cccc(S(=O)(=O)Oc2ccc([N+](=O)[O-])cc2)c1	7	nt	4.5	1.7	27	-11
CC(=O)NCCC(=O)Nc1nc2c(ccc3ccccc32)s1	1	17%	0.8	0.0	1	-5
C1=C(c2cccc3ccccc23)N2CCN=C2S1	-3	0.8%	3.9	-0.1	-1	5
Cc1c(C(=O)NCc2ccc3c(c2)OCCO3)sc(=O)n1Cc1ccc(S(=O)(=O)N(C)C)cc1	1	1.9%	6.8	-0.6	nt	5
O=C(CCc1ccccc1)Nc1ccccc1OC(=O)c1ccccc1	5	3.1%	-4.4	1.9	-3	-14
COc1ccccc1C(=O)NNC(=O)c1ccc(O)cc1	-3	-0.3%	-1.0	-0.8	12	-4
COc1ccc(Cn2c(=O)c3oc4ccccc4c3n(Cc3cccc(C)c3)c2=O)cc1	nt	-0.1%	nt	2.6	55	nt
CCCc1nc2oc(C(=O)OCC)c(N)c2c2c1COC(C)(C)C2	2	-1.2%	-2.3	1.3	5	0
O=C(Nc1ccccc1-c1nnc(SCc2ccccc2Cl)o1)c1ccccc1	9	8.5%[38.3 µM]	-3.0	-0.2	13	0
COc1cc(C=C2C(=O)OC(C)(C)OC2=O)cc(Cl)c1OCC(=O)Nc1ccccc1	-18	-1.6%	0.1	1.6	8	-12
O=C(CSc1cn[nH]n1)Nc1ccc(Cl)cc1Cl	5	0.1%	-3.0	0.7	8	10
O=C(Cn1nnc2ccccc21)N/N=C\c1cccs1	-7	1.6%	-0.6	0.0	24	-19
Cc1[nH]c(-c2ccco2)nc1C(=O)O	-8	5.5%[38.3 µM]	-1.1	-0.1	-5	-6
O=C(O)c1cc(S(=O)(=O)NCCOc2ccccc2)ccc1Cl	8	-0.2%	-4.2	0.0	5	3
O=C(N/N=C/c1cccnc1)c1ccccc1Cl	nt	0.3%	-5.1	1.1	34	3
CCN(C[C@H]1N[C@@](C)(C(=O)OC)[C@H]2C(=O)N(Cc3ccccc3)C(=O)[C@@H]12)C(=O)Nc1ccc(C)cc1	-12	1.8%	-2.3	0.1	-7	10
COc1ccccc1-c1noc(-c2ccc(NC(C)C)c([N+](=O)[O-])c2)n1	nt	0.8%	nt	-0.4	10	nt
Cc1ccc(-n2nc3c(c2NC(=O)c2ccco2)CS(=O)(=O)C3)cc1	18	-0.9%	-1.0	-0.1	-7	10
C=CCC(COCc1ccccc1)NS(=O)(=O)c1ccccc1Br (stereo not given)	13	-0.7%	-0.4	3.3&-0.6	21&4	10
Cc1ccc(Cn2c(=O)c3cccnc3n(Cc3ccc(F)cc3)c2=O)cc1	nt	1.8%	nt	-0.6	14	nt
COc1ccc(CCNc2cc(-c3ccccc3)nc3ncnn23)cc1	-8	3.9%	-4.1	1.8	-10	-2
Cc1cc2c(cc1S(=O)(=O)NCc1ccccc1Cl)OCCN2C	1	0.6%&1.2%	5.5	1.1&1.1	3&-4	-26
CCN(CC)C(=O)c1sc2nc(N3CCOCC3)c3c(c2c1N)CCCC3	0	6.0%	0.7	6.8	-6	1
CCc1ccc(C(=O)NC(C(=O)O)C(C)C)cc1 (stereo not given)	12	nt	-2.2	-0.4	-1	2
Cc1ccc2cccc(NC(=S)NC(=O)c3ccn(C)n3)c2n1	-17	?	-5.5	0.7	29	-13
Cc1cccc(-c2noc(-c3ccc(NC4CCCC4)c([N+](=O)[O-])c3)n2)c1	nt	2.1%	nt	-0.4	-5	nt
Cc1ccc(-c2c[n+](CC(=O)Nc3nc(-c4ccccc4)cs3)c3n2CCC3)cc1	-12	2.8%	-2.1	0.7	1	-19
CCOc1ccc(S(=O)(=O)NCC2CCCO2)cc1 (stereo not given)	7	nt	2.2	0.1	32	4
c1ccc(CSc2nnc(Cc3ccccn3)o2)cc1	-7	4.1%	-3.5	0.6	28	-5
CCCC(=O)Nc1ccccc1NC(=O)CN(C)S(=O)(=O)c1ccc(C)cc1	-7	-0.5%	0.1	0.0	-7	-2
Cc1ccc(-n2c(SCC(=O)NCC3CCCO3)nc3ccccc3c2=O)cc1C (stereo not given)	1	-0.4%	-2.6	-0.5	6	7
CC1(C(=O)NS(=O)(=O)c2ccccc2Cl)CCN1C(=O)CC(c1ccccc1)c1ccccc1 (stereo not given)	5	-0.7%	2.2	-0.2	-14	2
CCOC(=O)[C@]12CCCC=C1N(Cc1ccc3c(c1)OCO3)C(=O)[C@H](CC(=O)NCCCOC)C2	2	-0.2%	nt	0.0	nt	4
CCCCCCCNC(=O)C1(CC2CC(c3ccc(Cl)cc3)=NO2)CCN(C(=O)OC(C)(C)C)CC1 (stereo not given)	9	2.0%	-2.5	0.2	-1	5
CC(=O)NCC(=O)NC(Cc1ccccc1)C(N)=O (stereo not given)	6	-1.7%	-3.1	-0.7	5	9

Brought forward from above: 2 compounds, followed by the next part.
SMILES	CtBP-E1A inh	PINK1 modulator	D2 agonist	TRPML1 ag	TRPML1 inh	Six1-Eya2 blk
CCCCCCCNC(=O)C1(CC2CC(c3ccc(Cl)cc3)=NO2)CCN(C(=O)OC(C)(C)C)CC1 (stereo not given)	9	2.0%	-2.5	0.2	-1	5
CC(=O)NCC(=O)NC(Cc1ccccc1)C(N)=O (stereo not given)	6	-1.7%	-3.1	-0.7	5	9
CCOP(=O)(OCC)C(NC(=O)Nc1cccc(Cl)c1)c1ccccc1 (stereo not given)	7	-0.4%	1.7	-0.7	9	13
COc1ccc(Oc2nc3c(c(=O)n(C)c(=O)n3C)n2Cc2ccc(Cl)cc2Cl)cc1	nt	-0.3%	nt	-1.1	-8	nt
CC1=[N+]([O-])C(C)(C)C(C)N(O)C1=O (stereo not given)	0	0.3%	-2.2	0.8	1	8
CCOC(=O)C1CCN(C(=O)c2ccc(SC)cc2OC)CC1	2	-0.3%	-2.8	-1.2	-12	0
COC(=O)CCSCC(=O)Nc1ccc(S(=O)(=O)N2CCOCC2)cc1OC	6	-0.2%	-3.1	nt	nt	0
Cn1cc(-c2cc3n(n2)CCC(=O)N3CCCC(=O)Nc2ccc(F)cc2F)c2ccccc21	nt	0.3%	nt	1.4	-20	nt
COc1ccc(NC(=O)CCSc2nc(-c3ccco3)cc(C(F)(F)F)n2)cc1OC	nt	2.6%	nt	1.7	25	nt
O=C1C=C(c2cc3ccccc3s2)CCC1	1	-0.5%	-2.8	-0.7	17	0
CN(Cc1ccccc1)C(=O)CN1C(=O)CSc2ccc(S(=O)(=O)N3CCOCC3)cc21	nt	-1.5%	nt	-0.7	13	nt
Cc1cc(C)n(-c2nc(NCCN(C)C)c3c4c(sc3n2)CCCC4)n1	-4	-1.3%	-11	-0.7	-11	4
CCC(Cc1ccccc1)NS(=O)(=O)c1csc(C(N)=O)c1 (stereo not given)	6	-1.7%	0.9	0.4	-1	3
Oc1ccc(Cl)cc1/C=N/c1nc2ccccc2[nH]1	12	-5.5%[38.3 µM]	-2.4	-0.7	1	-1
CC(C)(O)C#Cc1ccc(CN2CCN(CCc3ccccc3)C(CCO)C2)s1 (stereo not given)	nt	-0.4%	-2.0	-0.2	0	-5
CN1C(=O)[C@H]2[C@@H](c3ccc(C(F)(F)F)cc3)N[C@]3(CCCN(Cc4ccc(C(F)(F)F)cc4)C3=O)[C@H]2C1=O	-12	0.6%	-3.5	-0.1	5	-7
Cc1csc(NC(=O)CSc2nnc3c4ccccc4nc(C(C)(C)C)n23)n1	11	?	-0.1	1.8	29	-9
CSc1ccccc1N=CC1=C(O)CC(C)(C)CC1=O	6	nt	-1.1	1.1	-2	11
N#CC1(NC(=O)COC(=O)CNC(=O)c2sc3ccccc3c2Cl)CCCCC1	nt	-0.4%	-0.5	0.2	36	-5
O=[N+]([O-])c1cccc(/C=N/N2CCN(c3ccccn3)CC2)c1	-1	0.8%	-2.3	1.4	3	1
COc1cc(C(C)=O)ccc1OCC(=O)OCCCOC(=O)COc1ccc(C(C)=O)cc1OC	9	-2.6%	-0.9	0.3	5	9
CCOc1ccc(-c2cc3nc(C4CCN(C(=O)OC(C)(C)C)CC4)c(C(=O)Nc4ccc(C)cc4Cl)cn3n2)cc1	nt	4.3%	nt	1.9	18	nt
CNC(=O)c1[nH]nc2c1CCc1cc(OC)ccc1-2	-5	1.6%	1.9	-0.5	-1	-3
CCC(Sc1nc2ccccc2c(=O)[nH]1)C(=O)Nc1ccc(C(C)=O)cc1 (stereo not given)	-1	4.5%	-4.3	3.0	0	-10
CCOC(=O)c1nn(-c2ccccc2F)c2nc(-c3ccco3)c(C#N)c(=O)n12	12	0.3%	-0.2	0.9	2	-3
O=C(CSc1nc2ccccc2o1)N1CCOCC1	7	1.4%	0.5	-0.6	-1	3

One compound at a time, as listed above. Order of values: CtBP-E1A inh	PINK1 modulator	D2 agonist	TRPML1 ag	TRPML1 inh	Six1-Eya2 blk
Cc1csc(NC(=O)CSc2nnc3c4ccccc4nc(C(C)(C)C)n23)n1 is listed as 11	?	-0.1	1.8	29	-9
CCOc1ccc(-c2cc3nc(C4CCN(C(=O)OC(C)(C)C)CC4)c(C(=O)Nc4ccc(C)cc4Cl)cn3n2)cc1 is listed as nt	4.3%	nt	1.9	18	nt
CC(C)(O)C#Cc1ccc(CN2CCN(CCc3ccccc3)C(CCO)C2)s1 (stereo not given) is listed as nt	-0.4%	-2.0	-0.2	0	-5
O=C(CSc1nc2ccccc2o1)N1CCOCC1 is listed as 7	1.4%	0.5	-0.6	-1	3
